Assay outcomes from PubChem BioAssay.
PABP polyA inh: blocks human PABP binding to poly(A) RNA; P11940; fluorescence polarization; inhibition, % at 35 µM; hit rate 1% among 290,000; AID 2014;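 active = 50% or more with normal probe brightness, or confirmed in later tests; about a fifth of its hits are not listed in these tables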;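 note: calls also rest on retests at 20 µM and on dose response follow-up; controls were probe without protein and protein plus probe with vehicle; some compounds called inactive have numbers as strong as hits; many hits fall short of the cut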
Target sequence (P11940 whole entry, looked up): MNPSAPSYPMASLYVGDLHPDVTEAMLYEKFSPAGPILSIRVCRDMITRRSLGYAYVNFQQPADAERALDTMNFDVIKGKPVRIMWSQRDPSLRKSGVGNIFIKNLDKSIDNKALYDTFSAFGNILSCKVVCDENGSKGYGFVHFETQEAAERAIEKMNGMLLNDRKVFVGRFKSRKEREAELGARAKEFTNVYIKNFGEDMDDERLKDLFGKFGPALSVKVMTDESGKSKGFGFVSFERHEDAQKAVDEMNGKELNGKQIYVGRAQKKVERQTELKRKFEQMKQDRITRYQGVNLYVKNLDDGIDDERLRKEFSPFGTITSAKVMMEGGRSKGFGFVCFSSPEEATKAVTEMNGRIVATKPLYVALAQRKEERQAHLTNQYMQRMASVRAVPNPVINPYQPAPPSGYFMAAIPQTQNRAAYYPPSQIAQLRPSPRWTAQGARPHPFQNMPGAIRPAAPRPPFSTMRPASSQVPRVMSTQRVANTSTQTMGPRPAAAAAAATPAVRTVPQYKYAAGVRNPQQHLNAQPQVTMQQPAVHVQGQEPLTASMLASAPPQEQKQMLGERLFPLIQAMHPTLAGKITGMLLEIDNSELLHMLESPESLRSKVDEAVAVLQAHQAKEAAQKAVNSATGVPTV
Rce1 inhib: inhibitors of yeast Ras-converting enzyme | yeast membranes, quenched prenylated peptide cleavage fluorescence | calls only | hit rate 0.27% among 290,000;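 active = fall in fluorescence gain of 50% or more versus controls, with final raw signal at or below 3038400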;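 note: plate controls were neutral control wells for no effect and wells lacking membranes for full effect; tested at 10 µM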
Target sequence (Q03530 whole entry, looked up): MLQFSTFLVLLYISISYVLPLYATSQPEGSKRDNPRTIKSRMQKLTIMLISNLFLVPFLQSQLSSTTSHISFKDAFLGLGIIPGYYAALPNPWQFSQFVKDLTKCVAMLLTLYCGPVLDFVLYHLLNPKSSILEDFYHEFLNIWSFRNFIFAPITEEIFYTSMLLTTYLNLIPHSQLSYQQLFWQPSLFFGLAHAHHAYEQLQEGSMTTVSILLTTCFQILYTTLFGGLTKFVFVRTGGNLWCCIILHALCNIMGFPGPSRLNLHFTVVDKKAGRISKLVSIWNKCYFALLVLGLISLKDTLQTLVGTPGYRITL
CSC inhib: blocks cancer stem cells; cancer stem cell-like cells viability, luminescence; inhibition, % at 7.5 µM; hit rate 1.1% among 300,000; AID 2717;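 active = mean at 75% or more and at least half the replicates too; tested in HMLE shEcad cells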;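 note: 0% = median of negative and 100% = median of positive control wells; the first replicate is given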
UUG fidelity: alters start codon recognition fidelity in yeast. activity score, % at 18.7 µM. hit rate 0.13% among 350,000. AID 602363. S. cerevisiae UUG-firefly luciferase reporter, luminescence/redox ratio;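 active = replicate mean at a twofold rise or more, about +100% in these data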;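 note: firefly luciferase made from a UUG start codon reports start codon fidelity; reporter light over untreated wells divided by growth signal over untreated wells; some hits fall short of that in this replicate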
MT1-MMP act inh: blocks activation of human MT1-MMP | GFP/RFP ratio change, % at 20 µM | P50281 | HT1080 RFP-PRO-GFP cells, GFP/RFP ratio fluorescence, overnight; percent of plate control window, DMSO zero | AID 651647 | hit rate 0.061% among 360,000;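 active = GFP/RFP ratio change of at least 30% with cell ATP level not reduced by more than half and red fluorescence within 50% of control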; note: strong numbers were not always called active
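Assay system: HT1080 cells carrying an RFP-PRO-GFP reporter | Dosing: Single dose of 20 µM compound, 1% DMSO final | Incubation: Cells overnight before dosing, compound overnight, 37 °C, 5% CO2 | Evaluation: GFP/RFP fluorescence ratio | Control set: DMSO and RFP-L50D-GFP cell wells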
Env fusion inh: blocks HIV Env-driven cell-cell fusion | HeLa-JRFL Env/CEM21 cell fusion, luciferase | inhibition, % at 12.3 µM | hit rate 1.1% among 360,000;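 active = mean replicate inhibition score of at least 50 and every replicate individually at or above 50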;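 note: 0% = plate neutral controls and 100% = maraviroc near 300 nM; one replicate is shown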
eIF4H inh: inhibitors of RNA binding by human eIF4H | eIF4H fluorescence polarization binding assay | inhibition, % at 35 µM | hit rate 0.94% among 290,000 | AID 2012;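 active = 50% or more with normal probe brightness, or confirmed in later tests; about a fifth of its hits are not listed in these tables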;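 note: calls also rest on retests at 20 µM and on dose response follow-up; 0% = protein and probe with vehicle and 100% = probe without protein; strong numbers were not always called active; many hits fall short of the cut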
eIF4H inh retest: recorded beside eIF4H inh, whose call it bears; inhibition, %; compound at 20 µM; confirmation average;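 mean of two retest wells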
PABP polyA inh retest: recorded beside PABP polyA inh, whose call it bears; inhibition, %; compound at 20 µM; confirmation repeats;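 mean of two retest wells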
MT1-MMP act inh RFP: recorded beside MT1-MMP act inh, whose call it bears; RFP signal change, %; measured here: RFP expression control read;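 0 = vehicle wells; hits needed this value within 50% of zero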
Starred values were filed as active, the others as inactive. Some of the compounds tested. The share of hits here may be higher or lower than overall.

Results for Nc1c(Cl)ncnc1N1CCOCC1 ?
PABP polyA inh: -2; Rce1 inhib: inactive; CSC inhib: -11; UUG fidelity: 4; MT1-MMP act inh: 1; eIF4H inh: -2; MT1-MMP act inh RFP: 2

How did COc1ccc(-n2nc3c(c2NC(=O)COc2ccccc2F)CS(=O)(=O)C3)cc1 do in these assays?
PABP polyA inh: 7; Rce1 inhib: inactive; CSC inhib: -12; UUG fidelity: -10; MT1-MMP act inh: -4; Env fusion inh: -6; eIF4H inh: 0; MT1-MMP act inh RFP: 2

Results for O=C(c1ccc(F)cc1)C1CCN(C(=O)Nc2ccc(F)cc2)CC1 ?
PABP polyA inh: 2; Rce1 inhib: inactive; UUG fidelity: -15; MT1-MMP act inh: 12; Env fusion inh: 0; eIF4H inh: 3; MT1-MMP act inh RFP: -5

Results for Cc1ccc(S(=O)(=O)/C(C#N)=C/c2c(Oc3ccc(Cl)cc3)nc3c(C)cccn3c2=O)cc1 ?
PABP polyA inh: -4; Rce1 inhib: inactive; CSC inhib: 5; eIF4H inh: -12

How did S=c1nc(-c2ccc(Br)cc2)oc2c1CCCC2 do in these assays?
PABP polyA inh: -2; Rce1 inhib: inactive; CSC inhib: -12; UUG fidelity: -20; MT1-MMP act inh: 7; Env fusion inh: -72; eIF4H inh: 6; MT1-MMP act inh RFP: 7

Results for CCN1CCN(Cc2ccc(NC(=O)Nc3cccs3)cc2)CC1 ?
PABP polyA inh: -3; Rce1 inhib: inactive; CSC inhib: -1; UUG fidelity: -27; MT1-MMP act inh: -3; eIF4H inh: -11; MT1-MMP act inh RFP: 6

How did O=C(NCCN1CCOCC1)c1ccc(/C=C2\Sc3ccccc3N(Cc3ccccc3F)C2=O)cc1 do in these assays?
PABP polyA inh: 5; Rce1 inhib: inactive; CSC inhib: 46; UUG fidelity: 6; MT1-MMP act inh: 0; Env fusion inh: 3; eIF4H inh: -4; MT1-MMP act inh RFP: -2

Results for Cc1ccc(NC(=O)C(=O)NCCOc2ccc(Cl)cc2)c(C)c1 ?
PABP polyA inh: -4; Rce1 inhib: inactive; MT1-MMP act inh: 2; Env fusion inh: 2; eIF4H inh: -4; MT1-MMP act inh RFP: 0

What do the screens show for `Cc1ccc(C)c(C(=O)CSc2n[nH]c(C)n2)c1`?
PABP polyA inh: 7; Rce1 inhib: inactive; CSC inhib: -10; UUG fidelity: -12; MT1-MMP act inh: 2; Env fusion inh: -76; eIF4H inh: -2; MT1-MMP act inh RFP: 2

How did C=CCC(C#Cc1ccccc1)[N+](C)(C)CC=C (centres undefined) do in these assays?
PABP polyA inh: 30; Rce1 inhib: inactive; CSC inhib: -11; UUG fidelity: -6; MT1-MMP act inh: 2; eIF4H inh: 29; MT1-MMP act inh RFP: 2

What do the screens show for `CCOC(=O)C1(C)C=C(Nc2ccc(OC)cc2)C(=O)N1c1ccc(OC)cc1` (centres undefined)?
PABP polyA inh: 17; Rce1 inhib: inactive; CSC inhib: -6; UUG fidelity: 14; MT1-MMP act inh: 3; Env fusion inh: 14; eIF4H inh: 2; MT1-MMP act inh RFP: 7

Results for Cc1ccc(C(C)NC(=O)c2cc3ccccc3oc2=O)cc1C (centres undefined) ?
PABP polyA inh: 8; Rce1 inhib: inactive; UUG fidelity: -8; MT1-MMP act inh: 4; Env fusion inh: 3; eIF4H inh: -6; MT1-MMP act inh RFP: 0

In the list so far, these contain a Cl atom.
Results for Nc1c(Cl)ncnc1N1CCOCC1 ?
PABP polyA inh: -2; Rce1 inhib: inactive; CSC inhib: -11; UUG fidelity: 4; MT1-MMP act inh: 1; eIF4H inh: -2; MT1-MMP act inh RFP: 2

Results for Cc1ccc(S(=O)(=O)/C(C#N)=C/c2c(Oc3ccc(Cl)cc3)nc3c(C)cccn3c2=O)cc1 ?
PABP polyA inh: -4; Rce1 inhib: inactive; CSC inhib: 5; eIF4H inh: -12

Results for Cc1ccc(NC(=O)C(=O)NCCOc2ccc(Cl)cc2)c(C)c1 ?
PABP polyA inh: -4; Rce1 inhib: inactive; MT1-MMP act inh: 2; Env fusion inh: 2; eIF4H inh: -4; MT1-MMP act inh RFP: 0

The listing continues:
What do the screens show for `Cc1nc(N2CCN(C)CC2)c2sc(=S)n(-c3ccccc3)c2n1`?
PABP polyA inh: -22; Rce1 inhib: inactive; CSC inhib: 0; UUG fidelity: -8; MT1-MMP act inh: 5; Env fusion inh: 18; eIF4H inh: -3; MT1-MMP act inh RFP: -7

What do the screens show for `COc1cccc(-c2cnc3c(NC(C)=O)cc(-c4cccc(NC(C)=O)c4)cn23)c1`?
UUG fidelity: 4; MT1-MMP act inh: 2; Env fusion inh: 32; MT1-MMP act inh RFP: -2

Results for CCc1cc[n+](C(C(=S)Nc2cccc(C)c2)=C([O-])c2ccc(C)c([N+](=O)[O-])c2)cc1 ?
UUG fidelity: -24; MT1-MMP act inh: 3; Env fusion inh: 14; MT1-MMP act inh RFP: -2

How did COC(=O)c1ccc(NC(=S)NC2CC(C)(C)NC(C)(C)C2)cc1 do in these assays?
PABP polyA inh: 12; Rce1 inhib: inactive; CSC inhib: 5; UUG fidelity: -2; MT1-MMP act inh: 1; Env fusion inh: -6; eIF4H inh: 2; MT1-MMP act inh RFP: -1

What do the screens show for `Cc1cccc(CNC(=O)C2CCC(=O)N(CCc3cccc(F)c3)C2)n1` (centres undefined)?
PABP polyA inh: 3; Rce1 inhib: inactive; UUG fidelity: -14; MT1-MMP act inh: -1; Env fusion inh: 24; eIF4H inh: 19; MT1-MMP act inh RFP: 1

Results for CC1=C(C(=O)N(C(C)C)C(C)C)CC(CC(=O)NCCCN(C)C)C(=O)N1Cc1ccc(C(C)(C)C)cc1 (centres undefined) ?
UUG fidelity: 3; MT1-MMP act inh: 0; Env fusion inh: 2; MT1-MMP act inh RFP: -1

What do the screens show for `COC(=O)c1c(-c2ccc(C)cc2)csc1NC(=S)NC(=O)c1cc(OC)cc(OC)c1`?
PABP polyA inh: -9; Rce1 inhib: inactive; CSC inhib: 11; UUG fidelity: -6; MT1-MMP act inh: 1; Env fusion inh: -22; eIF4H inh: -13; MT1-MMP act inh RFP: 2

How did Cc1cccc(/C=C2/Sc3ccc(C(=O)NCCN4CCCC4)cc3NC2=O)c1 do in these assays?
PABP polyA inh: -17; Rce1 inhib: inactive; CSC inhib: 6; MT1-MMP act inh: 1; Env fusion inh: 0; eIF4H inh: 0; MT1-MMP act inh RFP: 1

What do the screens show for `COc1ccc(C(=O)ON=C(C)c2nccs2)cc1`?
UUG fidelity: -65; MT1-MMP act inh: 0; Env fusion inh: 25; MT1-MMP act inh RFP: -1

How did CC(=O)N1C(O)CC(C)N1c1ccccc1 (centres undefined) do in these assays?
PABP polyA inh: -6; Rce1 inhib: inactive; UUG fidelity: -12; MT1-MMP act inh: -1; Env fusion inh: -11; eIF4H inh: 4; MT1-MMP act inh RFP: 3

How did CC(C)C1Oc2ccccc2N(CC(=O)N(Cc2ccccn2)CC2CCCO2)C1=O (centres undefined) do in these assays?
PABP polyA inh: 3; Rce1 inhib: inactive; CSC inhib: -2; UUG fidelity: 2; MT1-MMP act inh: 4; Env fusion inh: -11; eIF4H inh: -1; MT1-MMP act inh RFP: 2

How did CCOc1cc(/C=C2\SC(=O)N(c3ccc(O)cc3)C2=O)ccc1O do in these assays?
PABP polyA inh: -20; Rce1 inhib: inactive; CSC inhib: 15; MT1-MMP act inh: -37; Env fusion inh: 1; eIF4H inh: 28; MT1-MMP act inh RFP: -1

What do the screens show for `Cc1ccc(N=C(N)N=C(N)N)c(C)c1`?
PABP polyA inh: 12; Rce1 inhib: inactive; CSC inhib: -1; UUG fidelity: -26; MT1-MMP act inh: 2; Env fusion inh: 3; eIF4H inh: -1; MT1-MMP act inh RFP: 3

Results for CC1(C(=O)NC2CCN(Cc3ccccc3)CC2)CCN1Cc1ccc2ccccc2c1 (centres undefined) ?
UUG fidelity: -11; MT1-MMP act inh: 0; Env fusion inh: 10; MT1-MMP act inh RFP: -4

How did Cc1cccc(NC(=S)N/N=C/c2cccc(O)c2)c1C do in these assays?
PABP polyA inh: 2; Rce1 inhib: inactive; CSC inhib: 80*; UUG fidelity: -20; MT1-MMP act inh: -9; Env fusion inh: -51; eIF4H inh: 2; MT1-MMP act inh RFP: -14

Results for Cc1ccn2c(=O)nc(SCC(=O)OCc3ccccc3)nc2c1 ?
Rce1 inhib: inactive; CSC inhib: -5; UUG fidelity: -11; MT1-MMP act inh: -3; Env fusion inh: -13; MT1-MMP act inh RFP: 6

What do the screens show for `Cn1c(=O)c2c(nc(CN3CCN(CCO)CC3)n2Cc2cccc3ccccc23)n(C)c1=O`?
PABP polyA inh: -5; Rce1 inhib: inactive; CSC inhib: -7; UUG fidelity: 0; MT1-MMP act inh: -21; Env fusion inh: 17; eIF4H inh: 1; MT1-MMP act inh RFP: -8

What do the screens show for `Cc1ccc(NC(=O)CN2C(=O)S/C(=C\c3ccc(-c4cccc(C(=O)O)c4C)o3)C2=O)cc1C`?
PABP polyA inh: -9; MT1-MMP act inh: -6; Env fusion inh: 0; eIF4H inh: 68*; eIF4H inh retest: 69*; PABP polyA inh retest: 36; MT1-MMP act inh RFP: -2

What do the screens show for `Cc1cc(NC(=O)c2ccc(Cl)c(S(=O)(=O)N3CCCCC3)c2)no1`?
PABP polyA inh: 5; Rce1 inhib: inactive; CSC inhib: -6; UUG fidelity: 13; MT1-MMP act inh: -4; Env fusion inh: 31; eIF4H inh: -9; MT1-MMP act inh RFP: -22

What do the screens show for `CCOC(=O)N1CCN(S(=O)(=O)c2cc(OCC)ccc2OCC)CC1`?
PABP polyA inh: -4; Rce1 inhib: inactive; CSC inhib: -14; UUG fidelity: -9; MT1-MMP act inh: 1; Env fusion inh: 5; eIF4H inh: -4; MT1-MMP act inh RFP: 4

Results for Cc1ccc(N2C(=O)C(NC(=O)c3ccccc3F)(C(F)(F)F)C3=C2CC(C)(C)CC3=O)cc1 (centres undefined) ?
PABP polyA inh: 6; Rce1 inhib: inactive; CSC inhib: 11; UUG fidelity: -12; MT1-MMP act inh: 11; Env fusion inh: -5; eIF4H inh: 8; MT1-MMP act inh RFP: 7

What do the screens show for `Cn1nc(C(C)(C)C)cc1N1C(=O)CCC1(C)C(=O)NC1CCCCC1` (centres undefined)?
UUG fidelity: 11; MT1-MMP act inh: -3; Env fusion inh: -21; MT1-MMP act inh RFP: 1

How did CCOc1ccc(C(C(=O)NCC2CCCO2)N(C(=O)c2snc(C(N)=O)c2N)c2ccc(F)cc2)cc1 (centres undefined) do in these assays?
PABP polyA inh: 4; Rce1 inhib: inactive; CSC inhib: -7; UUG fidelity: 3; MT1-MMP act inh: -1; Env fusion inh: 41; eIF4H inh: -10; MT1-MMP act inh RFP: 1

How did Fc1ccccc1C(c1nnnn1Cc1ccc2c(c1)OCO2)N1CCN(Cc2ccccc2)CC1 (centres undefined) do in these assays?
PABP polyA inh: 0; Rce1 inhib: inactive; UUG fidelity: 7; MT1-MMP act inh: -14; Env fusion inh: -82; eIF4H inh: -6; MT1-MMP act inh RFP: -13

How did CNC(=S)N(CCc1ccc(S(N)(=O)=O)cc1)C1CC(=O)N(c2ccccc2F)C1=O (centres undefined) do in these assays?
PABP polyA inh: -12; Rce1 inhib: inactive; CSC inhib: 5; UUG fidelity: -15; MT1-MMP act inh: -1; Env fusion inh: -4; eIF4H inh: -6; MT1-MMP act inh RFP: -2
